Screening results: PubChem, several laboratories
ALR H2O2 inh: inhibitors of human sulfhydryl oxidase ALR; P55789; inhibition, % (no concentration beside the values); purified ALR, DTT oxidation, H2O2 HRP-luminol luminescence; AID 485317; 290,000 tested, 3.8% active;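 active = mean and each replicate at 75% or more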;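 also: stock transfer was 7.5 nL into about 7.5 µL; 0% = neutral wells and 100% = wells with inactivated enzyme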
Target sequence (P55789 whole entry, looked up): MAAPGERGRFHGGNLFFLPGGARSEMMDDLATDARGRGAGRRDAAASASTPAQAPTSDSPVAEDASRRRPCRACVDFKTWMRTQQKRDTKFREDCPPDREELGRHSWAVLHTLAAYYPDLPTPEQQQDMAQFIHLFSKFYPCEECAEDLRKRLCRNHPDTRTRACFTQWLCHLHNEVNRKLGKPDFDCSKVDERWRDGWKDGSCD
HNF4A DNA FP: change in binding of human HNF4 alpha to DNA; 360,000 tested, 0.3% active; P41235; activity change, % at 10 µM; HNF4a-FITC DNA binding, fluorescence polarization, 1 h; in the data active = activity change above about 30%, passing the limit was not always enough;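 also: controls were the assay level and a saturating level of protein; the project sought stronger binding though the title names inhibitors; some compounds called inactive have numbers as strong as hits; positive values seem to mean higher polarization but the record does not say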
Target sequence (P41235 whole entry, looked up): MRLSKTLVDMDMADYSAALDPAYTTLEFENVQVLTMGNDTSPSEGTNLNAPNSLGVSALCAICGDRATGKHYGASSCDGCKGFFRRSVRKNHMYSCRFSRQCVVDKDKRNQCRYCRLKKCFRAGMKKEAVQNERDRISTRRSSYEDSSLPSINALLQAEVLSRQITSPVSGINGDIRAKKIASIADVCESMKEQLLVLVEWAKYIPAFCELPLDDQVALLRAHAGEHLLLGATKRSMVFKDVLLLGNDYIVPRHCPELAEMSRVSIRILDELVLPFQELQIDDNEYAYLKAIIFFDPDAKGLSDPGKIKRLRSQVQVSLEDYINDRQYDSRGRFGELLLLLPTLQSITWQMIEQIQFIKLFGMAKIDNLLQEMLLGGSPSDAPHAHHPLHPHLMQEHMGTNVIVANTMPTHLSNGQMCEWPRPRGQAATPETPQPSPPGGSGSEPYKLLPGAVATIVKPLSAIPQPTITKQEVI
FGF22 binding: binders of recombinant human FGF22 by thermal shift; Q9HCT0; calls only at 9.99 µM; AID 651658; 340,000 tested, 1.5% active; SYPRO orange fluorescence; percent of sucrose octasulfate shift, DMSO zero;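 active = melting point raised past a set limit in the mean and every replicate; three in four hits are not shown here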
UCH37 inh: blocks the human deubiquitinase UCH37; purified proteasome/UCH37, Ub-AMC cleavage fluorescence; AID 588478; Q9Y5K5; inhibition, % (concentration not given with the values); 330,000 tested, 0.33% active;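 active = mean of two replicates above 20%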;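 also: 0% = compound-free wells with enzyme and 100% = wells lacking proteasome; stock transfer was 100 nL into about 20 µL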
Target sequence (Q9Y5K5 whole entry, looked up): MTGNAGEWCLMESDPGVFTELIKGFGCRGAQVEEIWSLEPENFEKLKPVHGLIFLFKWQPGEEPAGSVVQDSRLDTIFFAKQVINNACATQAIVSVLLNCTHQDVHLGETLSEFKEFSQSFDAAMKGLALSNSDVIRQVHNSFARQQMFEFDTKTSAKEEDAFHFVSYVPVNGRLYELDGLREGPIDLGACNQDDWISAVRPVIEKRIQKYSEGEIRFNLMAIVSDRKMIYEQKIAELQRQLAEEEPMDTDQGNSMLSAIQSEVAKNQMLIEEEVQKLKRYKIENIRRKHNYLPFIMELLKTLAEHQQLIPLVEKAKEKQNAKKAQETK
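Material: Human UCH37 enzyme supplied as purified proteasome complex | Schedule: 30 min compound-proteasome preincubation then 25 min substrate reaction, room temperature | Detection: AMC fluorescence from Ub-AMC cleavage, excitation 355 nm, emission 460 nm | Benchmarks: Wells without proteasome as full block, compound-free enzyme plus substrate as uninhibited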
Beta2AR agonist: activates human beta-2 adrenergic receptor causing internalization; response, % (concentration not given with the values); Am2.2-beta2AR cells, FAP receptor internalization, flow cytometry; reference of the scale not given here; 340,000 tested, 0.43% active;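 active = response above a set limit, near 3 SD of response in nonfluorescent compounds, cut at about 42% in these data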;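 also: stock transfer was 100 nL into about 11 µL; a reference agonist was the positive control; negative values mostly stem from fluorescent compounds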
E coli growth: E. coli growth inhibition; Escherichia coli growth, OD600, 23 h; hits give low values; OD600 absorbance (concentration not given with the values); 330,000 tested, 0.21% active;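 active = OD600 absorbance below the run mean of sample wells minus 3.6 SD, in any replicate, cut at about 0.56 in these data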;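 also: stock transfer was 300 nL into about 60 µL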
Ecoli rRNA inh: inhibits bacterial ribosomal RNA function over humanized ribosomes | E. coli WT GFP vs humanized-ribosome RFP mutants, fluorescence, 24 h; hits give low values; DMSO median 0, no signal -100 | GFP signal change (wild-type ribosome), % (test concentration not listed) | 350,000 tested, 1.6% active | AID 720706;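 active = significant combined selectivity score with lowered wild-type GFP, culture density cut under 30%, mutant RFP and density less affected; inactive = any of these conditions unmet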; also: one replicate is shown; some compounds called inactive have numbers as strong as hits
Ecoli rRNA inh OD600: recorded beside Ecoli rRNA inh, whose call it bears; OD600 change, %; measured here: OD600 growth;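 optical density of the mix in the first replicate; 0 = DMSO median and -100 = no signal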
Ecoli rRNA inh RFP: second read-out of Ecoli rRNA inh, no call of its own (marks repeat the call); RFP signal change, %; measured here: RFP humanized mutant strains;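 first replicate; 0 = DMSO median and -100 = no signal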
The depositor's hits bear a star; i = inactive; x = no result given; & = joins results of further samples.

Compound,ALR H2O2 inh,HNF4A DNA FP,FGF22 binding,UCH37 inh,Beta2AR agonist,E coli growth,Ecoli rRNA inh,Ecoli rRNA inh OD600,Ecoli rRNA inh RFP
CC(OC(=O)C1CCCCC1)c1nc2ccccc2[nH]1 (stereo not drawn),-6,-1.3,i,1.0,0,0.69,0,11,-4.2
COc1ccc2nc(SCC(=O)Nc3cc(OC)c(OC)cc3C(=O)O)c(C)cc2c1,43,-16,i,4.4,8,0.7,x,x,x
O=C(CNC(=O)c1ccccc1Cl)N/N=C/c1ccc2c(c1)OCO2,-11,0.7,i,x,7,x,3,18,-1.7
COc1cc(OC)c(C(=O)OCC(=O)NC2CCCCCCC2)cc1OC,1,2.1,i,3.2,-3,0.71,x,x,x
CC(C)(C)[C@H]1COC(=O)CCCC/C=C\C[C@H](CC(=O)NCCO)C(=O)N1,-5,0.2,i,2.3,5,x,17,9,9.4
CCOc1cc(NC(=O)c2cccs2)c(OCC)cc1NC(=O)CCC(=O)NCCN1CCOCC1,-4,3.4,i,4.2,-17,0.69,-5,1,0.1
COc1cccc(-n2c(SCC(=O)NCCC3=CCCCC3)nc3n[nH]c(C)c3c2=N)c1,-3,x,x,-3.4,x,0.77,x,x,x
COc1ccc2c(=O)c3c(=O)n(Cc4ccco4)c(C(C)C)nc3oc2c1,6,-2.9,x,3.5,-5,0.68,x,x,x
O=C(CN1CCN(S(=O)(=O)c2ccccc2)CC1)NCCc1ccccc1,1,-1.3,i,0.4,-2,0.68,-2,-11,0.2
COc1ccc(C(=O)c2c(N)sc3c2CCN(C(=O)OC(C)(C)C)C3)cc1,-11,12,i,x,13,x,x,x,x
CCOc1ccc2[nH]c(=O)c(C(c3nnnn3CC3CCCO3)N3CCc4ccccc4C3)cc2c1 (stereo not drawn),-14,2.5,x,-53,-4,0.71,x,x,x
COC(=O)c1c(NC(=O)CN2CCN(S(=O)(=O)c3ccccc3[N+](=O)[O-])CC2)sc2c1CCC(C)C2 (stereo not drawn),2,0.7,x,4.7,-4,0.69,x,x,x
CCN1C(=O)[C@H]2[C@@H](c3ccc(-c4ccc(OC)cc4)cc3)N[C@@](C)(C(=O)OC)[C@H]2C1=O,8,0.3,i,-7.0,2,0.77,5,-2,-4.6
CCN1CCN(C(=O)C(=O)c2cn(CC(=O)N3CCCC3)c3ccccc23)CC1,-6,-0.9,i,6.7,0,0.73,7,-1,2.1
CN1CCN(C(=O)c2cc3sccc3n2CC(=O)c2ccccc2)CC1,-7,-1.2,x,2.4,-7,0.66,x,x,x
CCOC(=O)C1=C(CNCCc2ccc(Cl)cc2)NC(=O)NC1c1ccc2c(c1)OCO2 (stereo not drawn),-7,0.1,x,0.8,-6,0.67,x,x,x
O=C1CC(NS(=O)(=O)c2cccnc2)CN1c1ccc(F)cc1 (stereo not drawn),0,-0.4,i,2.7,2,0.68,8,18,-0.8
COc1cc(NC(=O)CN2c3cccc4cccc(c34)S2(=O)=O)cc(OC)c1OC,-21,1.1,x,-2.3,-13,0.76,x,x,x
O=c1oc2ccc(Cl)cc2cc1-c1nnc(Nc2cccc(C(F)(F)F)c2)s1,-7,1.1,i,3.0,9,0.71,3,11,0.6
COCCN(C(=O)c1cc(OC)c(OC)c(OC)c1)c1c(N)n(Cc2ccccc2)c(=O)[nH]c1=O,16,-3.2,i,-0.1,16,0.72,17,10,3.3
O=S(=O)(Cc1ccccc1)NCC1CCCN(Cc2cccc3nonc23)C1 (stereo not drawn),-5,-2.8,i,-2.1,8,0.61,7,9,2.1
CNC[C@@H](C)NC[C@@H](Cc1ccccc1)NCCc1ccccc1,x,6.1,i,0.2,10,x,1,5,7.5
N#CC(Sc1ccccn1)c1ccc(Cl)cc1 (stereo not drawn),22,2.6,i,-1.4,-5,0.62,17,1,18
O=S(=O)(c1ccc(NC(=S)NCCC(c2ccccc2)c2ccccc2)cc1)N1CCOCC1,1,5.1,x,3.3,32,0.72,x,x,x
O=C(Cc1csc(NC(=O)Nc2cccc(Cl)c2)n1)NCc1cccnc1,x,1.6,i,-0.2,14,0.65,-2,-3,-1.8
COc1ccc2[nH]c(C(=O)NCCCN3CCCC3=O)c(C)c2c1,-3,3.4,i,-52,-10,0.65,-5,6,-1.8
COc1ccc(C(=O)N2CCOC2CNC(=O)C(=O)NCc2ccc(Cl)cc2)cc1 (stereo not drawn),x,-1.1,x,3.8,-5,0.71,13,17,1.9
CCOc1ccc(CC(=O)C2=C(N3CCOCC3)CC(C)(C)CC2=O)cc1OCC,-9,2.4,i,5.1,2,0.69,26,18,4.5
Cc1nn(CC(=O)NCCc2ccccc2)c(=O)c2cccn12,-3,-1.8,i,1.5,-6,0.71,8,6,0.1
COC(=O)CCCCCCCCCCN1CCCCC1,4,-1.4,x,0.1,2,0.72,x,x,x
C[C@H](CO)N1C[C@H](C)[C@@H](CN(C)Cc2ccc(Cl)c(Cl)c2)Oc2c(NC(=O)C3CCOCC3)cccc2C1=O,x,0.9,i,4.2,9,0.7,-5&-13,-7&-32,-1.4&-3.8
CCN(CC1CCCN(CCc2cccc(F)c2)C1)C(=O)c1cc(C)oc1C (stereo not drawn),5,-0.4,i,5.4,4,0.65,0,5,1.1
Cc1ccc(N2CCN(C(=O)NC3CCCCC3)CC2C)cc1 (stereo not drawn),x,-0.3,i,5.9,-3,0.69,6,4,-3.5
O=C(Nc1cccc([N+](=O)[O-])c1)NC1CCS(=O)(=O)C1 (stereo not drawn),-6,-1.6,i,5.3,3,0.73,0,6,-2.9
CCCCN(C)CC(O)Cn1cc(/C=C/C(=O)c2ccc(C)cc2)c2ccccc21 (stereo not drawn),-4,7.4,i,x,20,x,-57,-75,-19
COc1cccc(C(=O)Nc2cccc(C(=O)N3CCOCC3)c2)c1,x,-1.0,x,1.9,3,0.72,x,x,x
O=C(O)COc1ccc(/C=N/NC(=O)c2ccccc2Br)cc1,-14,5.1,x,x,-3,x,x,x,x
COc1ccc(N(CC(O)CN2CCOCC2)S(=O)(=O)c2ccc(C)cc2)cc1 (stereo not drawn),0,-2.2,x,0.6,-3,0.64,0,3,-1.2
O=C1C2C3C=CC(C3)C2C(=O)N1CC1CCCO1 (stereo not drawn),-4,-0.1,x,2.1,-6,0.67,18,11,-2.2
COc1ccc(CC(=O)Nc2ccc(NC(=O)c3ccc(Br)cc3)cc2)cc1OC,x,-5.6,i,0.2,-1,0.63,21,14,1.5
NC(=O)c1ccccc1NS(=O)(=O)Cc1ccccc1,-4,0.4,x,-85,1,0.72,x,x,x
CCC(CC)C(=O)N(C)c1c(C)nc2c(OCc3ccccc3C(=O)OC)cccn12,x,2.9,i,x,x,x,2,-23,-0.1
Cc1ccccc1Nc1nc(N)nc(COC(=O)c2cccn2C)n1,-13,2.1,x,4.7,8,0.72,x,x,x
Cc1ccc(N2C(N)=C(C#N)C3(C(=O)N(C)c4ccccc43)C3=C2CC(C)(C)CC3=O)cc1Cl (stereo not drawn),-5,-1.8,x,-1.4,2,0.74,x,x,x
O=C(Cc1csc(Nc2nc(=S)[nH]c3ccccc23)n1)NCCCN1CCN(c2ccccc2F)CC1,-10,5.0,i,0.6,6,0.7,21,5,44
N#Cc1cccc(NC(=O)c2cc(C3CCCCN3C(=O)C3CC3)on2)c1 (stereo not drawn),x,1.0,i,x,x,x,4,12,-1.8
O=C1C=C(Nc2cccc3cccnc23)c2ccccc2C1=O,-10,9.0,i,x,-5,x,10,-13,15
CC[C@@]1(O)C(=O)OCc2c1cc1n(c2=O)Cc2cc3c(N)cccc3nc2-1,-19,-6.9,i,-0.9,10,0.73,1,16,-6.1
CCCCn1nc2cc(C(=O)NCc3ccc(OC(F)(F)F)cc3)ccc2c1OC,3,-1.2,i,-8.3,-15,0.7,-4,1,-7.1
Cc1cc(C)cc(NC(=O)C(Nc2ccccc2)c2ccccc2)c1 (stereo not drawn),x,1.5,i,3.1,7,0.7,-14,-13,-3.7
COCCNC(=O)CCCn1c(=O)c2cc(OC)c(OC)cc2n(CC(=O)c2cccc(OC)c2)c1=O,1,-7.5,i,3.4,5,0.67,10,1,-2.7
CC(=O)Nc1ccccc1OCC(=O)NCCC1=CCCCC1,-10,-3.0,i,2.9,-16,0.71,-19,-13,-11
Cc1ccc(S(=O)(=O)NC2=C(N3CCN(Cc4ccccc4)CC3)C(=O)c3ccccc3C2=O)cc1,-44,0.3,i,5.6,53*,0.7,-9,-9,6.8
O=C(CNS(=O)(=O)c1ccccc1F)NNC(=O)c1ccc(Br)cc1,x,4.8,x,0.5,-11,0.69,6,4,2.0
CC(C)Cc1nnc(NC(=O)CCC(=O)N2CCN(S(=O)(=O)c3ccccc3)CC2)s1,-31,-0.8,x,2.2,-7,0.66,x,x,x
O=C(CCN1C(=O)[C@H]2CC=CC[C@H]2C1=O)NCc1nc(-c2ccccc2)no1,-4,2.1,i,4.0,6,0.67,10,4,1.1

Next section
Compound,ALR H2O2 inh,HNF4A DNA FP,FGF22 binding,UCH37 inh,Beta2AR agonist,E coli growth,Ecoli rRNA inh,Ecoli rRNA inh OD600,Ecoli rRNA inh RFP
Cn1nnnc1SCCNCc1cccnc1,0,-1.6,x,2.6,13,0.69,x,x,x
Cc1ccc(/C(=N\S(=O)(=O)c2ccc(Br)cc2)Nc2ccccc2C)cc1,-4,1.1,i,2.3,-10,0.67,2,8,0.9
C=CCNC(=O)COc1ccc(S(=O)(=O)N2CCCC2)cc1,1,-1.1,i,1.0,6,0.69,5,13,0.5
COc1ccccc1S(=O)(=O)N(C)C[C@@H]1OCc2cn(nn2)CCCC(=O)N([C@H](C)CO)C[C@H]1C,x,-1.1,i,x,x,x,5&2,19&-1,-1.9&0.8
COC(=O)[C@H](C)NC(=O)Nc1ccccc1C(F)(F)F,-4,4.1,x,3.7,5,0.66,x,x,x
Cc1ccc(NC(=S)NCCc2ccccc2)c(C)c1,38,-2.2,x,1.7,0,0.71,x,x,x
CC1(C)Cc2c(c(N3CCOCC3)nc3sc4c(NCC5CCCO5)nnnc4c23)CS1 (stereo not drawn),-3,-9.1,i,2.5,2,0.66,5,3,-0.8
CCn1c(SCC(=O)NCC2CCCO2)nnc1-c1ccc(S(=O)(=O)N2CCN(C)CC2)cc1 (stereo not drawn),-12,2.9,i,3.3,1,0.74,1,10,-1.6
C[C@@H]1CN([C@H](C)CO)C(=O)CCCn2nncc2CO[C@H]1CN(C)Cc1cccc(C(=O)O)c1,x,1.8,i,x,x,x,3&-3,12&-4,0.6&0.6
Cc1nonc1NC(=O)CSc1nc2c(C)cccc2cc1C#N,5,2.0,x,x,-77,x,x,x,x

The list is partial; the hit share may differ from the screen's.
